eIF4H inh: inhibitors of RNA binding by human eIF4H. eIF4H fluorescence polarization binding assay. inhibition, % at 35 µM. 0.94% of 290,000 active;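 active = 50% or more with normal probe brightness, or confirmed in later tests; inconclusive = above 50% with abnormal brightness, or retests that disagree; inactive = below 50% or failed in later tests; about a fifth of its hits are not listed in these tables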;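 also: calls also rest on retests at 20 µM and on dose response follow-up; 0% = protein and probe with vehicle and 100% = probe without protein; strong numbers were not always called active; many hits fall short of the cut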
Env fusion inh: HIV envelope-mediated fusion inhibition | HeLa-JRFL Env/CEM21 cell fusion, luciferase | inhibition, % at 12.3 µM | AID 651610 | 1.1% of 360,000 active;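 active = mean replicate inhibition score of at least 50 and every replicate individually at or above 50; inconclusive = only one of the two criteria met; inactive = mean below 50 and not all replicates reaching 50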;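 also: 0% = plate neutral controls and 100% = maraviroc near 300 nM; one replicate is shown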
PABP FP inh: blocks human PABP binding to poly(A) RNA. P11940. fluorescence polarization. inhibition, % at 35 µM. 1% of 290,000 active;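 active = 50% or more with normal probe brightness, or confirmed in later tests; inconclusive = above 50% with abnormal brightness, or retests that disagree; inactive = below 50% or failed in later tests; about a fifth of its hits are not listed in these tables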;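 also: calls also rest on retests at 20 µM and on dose response follow-up; controls were probe without protein and protein plus probe with vehicle; some compounds called inactive have numbers as strong as hits; many hits fall short of the cut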
Target sequence (P11940 whole entry, looked up): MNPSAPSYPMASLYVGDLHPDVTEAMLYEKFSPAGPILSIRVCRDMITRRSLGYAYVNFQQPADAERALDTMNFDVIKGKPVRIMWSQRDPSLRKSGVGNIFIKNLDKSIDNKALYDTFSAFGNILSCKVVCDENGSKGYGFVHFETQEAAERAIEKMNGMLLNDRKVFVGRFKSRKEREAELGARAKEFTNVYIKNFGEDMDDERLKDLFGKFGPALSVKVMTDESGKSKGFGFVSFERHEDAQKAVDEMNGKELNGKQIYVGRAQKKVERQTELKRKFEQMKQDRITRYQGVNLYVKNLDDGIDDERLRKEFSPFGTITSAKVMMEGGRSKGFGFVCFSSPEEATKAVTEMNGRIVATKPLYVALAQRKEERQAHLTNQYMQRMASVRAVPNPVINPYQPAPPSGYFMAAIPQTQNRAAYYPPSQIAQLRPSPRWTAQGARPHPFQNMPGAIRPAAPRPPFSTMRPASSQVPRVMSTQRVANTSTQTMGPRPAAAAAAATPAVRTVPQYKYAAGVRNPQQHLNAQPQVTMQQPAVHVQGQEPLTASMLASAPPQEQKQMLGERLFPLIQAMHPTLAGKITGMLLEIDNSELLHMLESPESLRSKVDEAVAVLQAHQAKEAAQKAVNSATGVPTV
CSC inhib: cancer stem cell inhibition; cancer stem cell-like cells viability, luminescence; inhibition, % at 7.5 µM; 1.1% of 300,000 active; AID 2717;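 active = mean at 75% or more and at least half the replicates too; inconclusive = mean and replicates disagree; tested in HMLE shEcad cells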;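 also: 0% = median of negative and 100% = median of positive control wells; the first replicate is given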
UUG fidelity: modulators of start codon recognition fidelity in yeast; 0.13% of 350,000 active; activity score, % at 18.7 µM; AID 602363; S. cerevisiae UUG-firefly luciferase reporter, luminescence/redox ratio;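 active = replicate mean at a twofold rise or more, about +100% in these data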;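 also: firefly luciferase made from a UUG start codon reports start codon fidelity; reporter light over untreated wells divided by growth signal over untreated wells; some hits fall short of that in this replicate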
MT1-MMP act inh: inhibitors of human MT1-MMP activation; 0.061% of 360,000 active; GFP/RFP ratio change, % at 20 µM; HT1080 RFP-PRO-GFP cells, GFP/RFP ratio fluorescence, overnight; percent of plate control window, DMSO zero; P50281;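 active = GFP/RFP ratio change of at least 30% with cell ATP level not reduced by more than half and red fluorescence within 50% of control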; also: strong numbers were not always called active
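Test system: HT1080 cells expressing an RFP-PRO-GFP fluorescent reporter construct / Compound dosing: single-point 20 µM compound, 1% DMSO / Schedule: cells overnight before dosing, compound overnight, 37 °C, 5% CO2 / Evaluation: GFP/RFP fluorescence ratio / Control set: DMSO and RFP-L50D-GFP cell wells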
Rce1 inhib: inhibitors of yeast Ras-converting enzyme; AID 2563; 0.27% of 290,000 active; yeast membranes, quenched prenylated peptide cleavage fluorescence; Q03530; calls only;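 active = fall in fluorescence gain of 50% or more versus controls, with final raw signal at or below 3038400; inconclusive = same 50% fall but final raw signal above 3038400; inactive = fall in fluorescence gain under 50%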;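 also: plate controls were neutral control wells for no effect and wells lacking membranes for full effect; tested at 10 µM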
Target sequence (Q03530 whole entry, looked up): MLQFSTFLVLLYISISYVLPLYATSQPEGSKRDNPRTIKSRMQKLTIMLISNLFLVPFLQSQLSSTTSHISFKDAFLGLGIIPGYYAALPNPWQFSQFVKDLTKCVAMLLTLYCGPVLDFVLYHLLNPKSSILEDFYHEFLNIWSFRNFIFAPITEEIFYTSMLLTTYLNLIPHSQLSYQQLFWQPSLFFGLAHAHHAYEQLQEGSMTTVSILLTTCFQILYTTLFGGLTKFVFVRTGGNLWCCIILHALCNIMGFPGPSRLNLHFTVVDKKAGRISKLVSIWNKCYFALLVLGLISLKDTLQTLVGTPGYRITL
eIF4H inh retest: recorded beside eIF4H inh, whose call it bears; inhibition, %; compound at 20 µM; confirmation average;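 mean of two retest wells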
PABP FP inh retest: recorded beside PABP FP inh, whose call it bears; inhibition, %; compound at 20 µM; confirmation repeats;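 mean of two retest wells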
MT1-MMP act inh RFP: further read-out of MT1-MMP act inh, marked with its call; RFP signal change, %; measured here: RFP expression control read;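 0 = vehicle wells; hits needed this value within 50% of zero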
* = called active by the depositor; i = inactive; ? = inconclusive; / = no result given.

SMILES	eIF4H inh	Env fusion inh	PABP FP inh	CSC inhib	UUG fidelity	MT1-MMP act inh	MT1-MMP act inh RFP	Rce1 inhib	others
CCc1n[nH]c(=S)n1/N=C/c1ccccc1OCc1ccc(Cl)cc1	13	-5	4	/	/	0	2	i
Cc1ccc(Sc2nc3ccc(C)cn3c(=O)c2/C=N/O)cc1	-6	11	-27	4	-7	4	-4	i
CS(=O)(=O)N1CC(C(=O)NC2CC2)Oc2ccc(Cl)cc21 (stereo unspecified)	-9	-19	3	-2	-5	-5	-4	i
COc1cc(NC(=S)N2CCN(S(=O)(=O)c3ccc(F)cc3)CC2)cc(OC)c1	4	16	5	2	-20	0	-1	i
Cc1cc(=O)[nH]c(SCc2csc(-c3ccccc3)n2)n1	11	-15	-17	-20	/	1	1	i
Cc1c2cnn(CC(=O)Nc3c(F)c(F)cc(F)c3F)c(=O)c2c(C)n1Cc1ccc(F)cc1	59	-2	-10	-13	/	/	/	i	eIF4H inh retest=-10;PABP FP inh retest=6
CC(=O)c1cc(C)ccc1OC(=O)CN1C(=O)c2ccccc2C1=O	2	-17	6	-9	-1	-1	2	i
CCS(=O)(=O)N1CCC(C(=O)NC2CCCCC2)CC1	-2	/	0	-14	/	2	11	/
CC(C)c1ccccc1OCC(=O)NC1CCCc2ccccc21 (stereo unspecified)	-9	7	-7	25	-3	-11	-10	i
Cc1ccccc1CN1CCN(Cc2cc(=O)c3ccccc3[nH]2)CC1CCO (stereo unspecified)	15	1	1	-17	-5	-2	3	i
C=CCN(CC=C)Cc1cc(=O)oc2cc(C)cc(C)c12	/	-6	/	/	-1	-3	-2	/
CCOc1ccc(OCC(=O)OCC(=O)Nc2ccccc2C#N)cc1	/	-10	/	/	-11	-1	0	/
C=CCn1cnc2c(c1=O)c1nc3ccccc3nc1n2/N=C/c1cc(OC)c(OC)c(OC)c1	2	/	-2	41	6	2	-6	i
COc1ccccc1-n1c(SCC(=O)NCC2CCCO2)nc2c([nH]c3ccccc32)c1=O (stereo unspecified)	-2	30	1	8	7	-2	-2	i
O=C(O)c1ccc(N2CCN(Cc3ccc4c(c3)OCO4)CC2)c([N+](=O)[O-])c1	2	-5	5	-10	-37	2	6	i
CN(C(=O)COC(=O)c1cncc(Br)c1)C1CCCCC1	/	-32	/	-8	-9	2	-3	/
CCOC(=O)N1CCC(NC(=O)CC2C(=O)NCCN2Cc2ccccc2F)CC1 (stereo unspecified)	2	-1	11	-9	2	-2	1	i
Cc1ccnc(N/C=C(/NC(=O)c2ccccc2)C(=O)NN)n1	15	3	4	5	-19	-1	5	i
C=CCc1cccc(CNc2nc3ccccc3n2CC)c1O	-3	27	-4	/	-9	1	-9	i
O=c1oc2ccccc2cc1-c1nc2ccccc2o1	3	/	-9	-5	-11	0	6	i
COC(=O)c1cc(S(=O)(=O)N2CCN(c3ccc(C(C)=O)cc3)CC2)cn1C	/	-7	/	-10	-12	-3	-8	i
Cc1ccc2c(c1)nnn2C1CCN(C(=O)c2cccs2)CC1	-8	3	1	1	6	-2	1	i
Cc1sc2ncnc(N(C)Cc3ccco3)c2c1C	1	/	-7	-11	-12	-6	-12	/
CCOC(=O)C(Cc1ccccc1)C(=O)Nc1ccc(NC(=O)C(Cc2ccccc2)C(=O)OCC)cc1 (stereo unspecified)	0	-9	0	-5	7	0	4	i
COC(=O)c1ccc(NC(=O)Cn2nc(SC)n(N)c2=S)cc1	6	/	4	-11	/	-2	6	i

Later entries
SMILES	eIF4H inh	Env fusion inh	PABP FP inh	CSC inhib	UUG fidelity	MT1-MMP act inh	MT1-MMP act inh RFP	Rce1 inhib	others
C=CCNc1nc(C(=O)OCC(=O)N(Cc2ccccc2)C(C)C)cs1	/	8	/	-11	-11	1	-2	/
CCN(CC)C(=O)CCn1nc(-c2ccc(C)cc2)c2ccccc2c1=O	-5	/	3	-1	1	-3	0	i
COCCOC(=O)c1c(C)oc2ccc(NS(=O)(=O)c3ccc(C)cc3)cc12	-8	9	-13	19	1	0	-3	i
O=C(COc1ccc2ccccc2c1Br)NNC(=O)Nc1ccccc1	-4	-10	-5	-1	8	6	2	i
CCOC(=O)COc1ccc(C(=O)NC2CCCCC2)cc1	-14	/	-7	-15	/	2	1	i
NS(=O)(=O)c1ccc(CCNC(=O)CCCn2ncn3c(cc4occc43)c2=O)cc1	-5	2	6	-3	-22	2	5	i
CC(C)NC(=O)c1cc(-c2ccc(F)cc2OC(C)C)n[nH]1	/	-12	/	/	0	-3	0	/
COc1cc2c(cc1OC)C(c1ccccc1)N(C(=O)C(C)(C)C)CC2 (stereo unspecified)	6	1	10	/	-12	-3	-3	i
Cc1ccc(C2CC(=O)Nc3cc4c(cc32)OCO4)o1 (stereo unspecified)	6	-24	6	-7	/	-4	0	i
NC(=O)c1ccc(Cc2ncc(C(F)(F)F)cc2Cl)s1	-5	/	-8	/	/	1	-1	i
CC(C(=O)Nc1ccc2c(c1)OCO2)N1CCN(C)CC1 (stereo unspecified)	3	-63	15	-16	4	0	-1	i
O=C(OCc1cn([C@@H]2C[C@H](c3ccccc3)N(C(=O)C3CCCCC3)C[C@H]2O)nn1)c1ccccc1	/	?	/	/	10	-5	-4	/
CC(NC(=O)c1ccc(S(=O)(=O)Nc2ccccc2Cl)cc1)c1ccncc1 (stereo unspecified)	/	-13	/	-11	-13	-4	-2	/
O=C1NC2(CCCC2)N=C1c1ccc(Cl)cc1	-6	/	3	-16	-5	-1	-3	i
CC(C)N1CCN(Cc2ccc(Sc3nncn3C)o2)CC1CCO (stereo unspecified)	12	-58	-4	13	-21	8	2	i
COc1ccc(CNC(=O)C2CCN(S(=O)(=O)c3cccnc3)CC2)cc1	7	-2	12	13	-23	0	3	i
COCCOc1cc(-n2cccc2)c(Cl)cc1Cl	-7	-17	2	2	-13	-4	-2	/
COc1cc2c(cc1OC)CN(C(C)C(=O)Nc1ccc(NC(C)=O)cc1)CC2 (stereo unspecified)	-5	1	1	-4	11	-1	2	i
COC(=O)c1sc(C(=O)OC)c(C(=O)OC)c1C(=O)OC	-5	/	-5	-12	/	-8	-5	i
COc1ccc(SCCN2CC[C@@H](NC(=O)OCc3ccccc3)CCC2=O)cc1	/	2	/	-18	-2	4	-2	/
CCOC(=O)c1sc(=S)n(C)c1NC(=O)c1ccccc1Cl	1	/	5	-8	-23	0	-3	i
O=C1CS/C(=N/N=C/c2ccncc2)N1	4	4	-5	5	-18	0	-1	i
Nc1nnc(SCC(=O)OCc2ccccc2)s1	12	-3	8	-15	-12	-3	2	i
O=c1c2ccccc2cnn1CCOc1cccc(Br)c1	-7	-43	2	-2	0	-2	-2	i
COc1ccc(C2SCC(=O)N2CCc2ccc(OC)c(OC)c2)cc1 (stereo unspecified)	-8	42	-10	41	/	-14	-23	i

Molecules listed so far that have bromine:
SMILES	eIF4H inh	Env fusion inh	PABP FP inh	CSC inhib	UUG fidelity	MT1-MMP act inh	MT1-MMP act inh RFP	Rce1 inhib	others
CN(C(=O)COC(=O)c1cncc(Br)c1)C1CCCCC1	/	-32	/	-8	-9	2	-3	/
O=C(COc1ccc2ccccc2c1Br)NNC(=O)Nc1ccccc1	-4	-10	-5	-1	8	6	2	i
O=c1c2ccccc2cnn1CCOc1cccc(Br)c1	-7	-43	2	-2	0	-2	-2	i

A draw from above in order of length of the SMILES, high to low:
SMILES	eIF4H inh	Env fusion inh	PABP FP inh	CSC inhib	UUG fidelity	MT1-MMP act inh	MT1-MMP act inh RFP	Rce1 inhib	others
COc1ccc(SCCN2CC[C@@H](NC(=O)OCc3ccccc3)CCC2=O)cc1	/	2	/	-18	-2	4	-2	/
CC(NC(=O)c1ccc(S(=O)(=O)Nc2ccccc2Cl)cc1)c1ccncc1 (stereo unspecified)	/	-13	/	-11	-13	-4	-2	/
COc1cc2c(cc1OC)C(c1ccccc1)N(C(=O)C(C)(C)C)CC2 (stereo unspecified)	6	1	10	/	-12	-3	-3	i
C=CCNc1nc(C(=O)OCC(=O)N(Cc2ccccc2)C(C)C)cs1	/	8	/	-11	-11	1	-2	/
COc1ccc(C2SCC(=O)N2CCc2ccc(OC)c(OC)c2)cc1 (stereo unspecified)	-8	42	-10	41	/	-14	-23	i
O=C1NC2(CCCC2)N=C1c1ccc(Cl)cc1	-6	/	3	-16	-5	-1	-3	i

Going on with the list.
SMILES	eIF4H inh	Env fusion inh	PABP FP inh	CSC inhib	UUG fidelity	MT1-MMP act inh	MT1-MMP act inh RFP	Rce1 inhib	others
CCc1c(C)nc2ncnn2c1NCc1cccs1	-5	26	3	-14	-11	-3	-13	i
Cn1c(-c2csc(-c3cccc(C(F)(F)F)c3)n2)n[nH]c1=S	-6	-15	2	-8	/	4	0	i
CCn1c2ccccc2c2cc(NC(=O)c3cc(OC)cc(OC)c3)ccc21	-6	-59	-12	84*	/	18	0	i
Cc1ccc2nc(SCC(=O)Nc3ccc4sc(C)nc4c3)c(C#N)cc2c1	-4	-24	1	-13	-2	-243	0	i
CC1=C(C(=O)N(C)C)CC(CC(=O)NCc2cccs2)C(=O)N1CCCN1CCCC1=O (stereo unspecified)	/	9	/	/	-6	3	7	/
CC1=CC(c2ccccc2)n2nc(N3C(=O)c4ccccc4C3=O)nc2N1 (stereo unspecified)	-6	-89	2	-4	-10	0	-4	i
COc1ccc(N2CCN(C(=O)CN(Cc3ccc(Cl)cc3)S(C)(=O)=O)CC2)cc1	2	-5	-2	6	3	5	-9	i
COc1cccc(Nc2nc(NCC3CCCO3)c3ccccc3n2)c1 (stereo unspecified)	-4	40	-8	21	-2	-2	-12	i
Cc1c(NS(=O)(=O)c2cc(Br)cc3c2N(C(=O)C2CC2)CC3)c(=O)n(-c2ccccc2)n1C	8	/	-10	-17	/	-1	5	i
COc1ccccc1/C=C/C(=O)OCC(=O)NC1CCCCCC1	/	9	/	/	9	3	-3	/
CCC(=O)NCc1cc(-c2nn(C)c(=O)c3ccccc23)ccc1OC	-18	6	-2	-1	/	-1	2	i

Screens from PubChem BioAssay.
